High-throughput results as filed in PubChem BioAssay.
N370S GC mod: N370S glucocerebrosidase modulation, Gaucher chaperone candidate; P04062; N370S GC spleen homogenate, 4MU-glucoside fluorescence; Potency, µM (doses to about 59.4 µM), for the others: at the top dose activity change, negative = inhibition, usual class: inhibitors; 330,000 compounds, 0.092% hits; AID 2101;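 note: 0% = full enzyme activity and -100% = no enzyme basal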
FEN1 inh: inhibitors of human flap endonuclease 1 | Recombinant FEN1 flap cleavage, fluorescence, 15 min | 390,000 compounds, 0.35% hits | Potency, µM (titrated, usually from 114 µM), inactives show top-dose activity change, negative = inhibition, actives largely listed as inhibitors; note: nearly all actives have a fitted effect of over 65% in size
Target sequence (P39748 whole entry, looked up): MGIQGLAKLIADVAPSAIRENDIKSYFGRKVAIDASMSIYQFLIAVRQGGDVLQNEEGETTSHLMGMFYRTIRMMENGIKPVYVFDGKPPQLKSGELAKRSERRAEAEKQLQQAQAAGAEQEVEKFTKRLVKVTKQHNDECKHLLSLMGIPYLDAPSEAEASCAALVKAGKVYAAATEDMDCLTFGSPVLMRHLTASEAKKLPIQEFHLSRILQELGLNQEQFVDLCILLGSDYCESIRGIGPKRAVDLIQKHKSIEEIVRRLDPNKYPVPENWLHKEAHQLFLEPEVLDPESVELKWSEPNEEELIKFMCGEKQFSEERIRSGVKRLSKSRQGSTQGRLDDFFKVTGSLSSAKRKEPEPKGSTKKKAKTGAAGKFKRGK
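In this screen, 50 nM flap DNA substrate was added to 10 nM FEN1 pretreated with compound for 15 min at room temperature; cleavage was followed with reads at 0 and 15 min, and Hill fitting gave concentration–response parameters.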
The depositor's hits bear a star; u = inconclusive; x = not tested or not shown; [ ] = another dose, or the depositor's remark. Calls come from the whole dose curve; as a rule, active = well fitted curve in the direction sought with a large enough effect; inconclusive = small, poorly fitted or top-dose-only effect, or another doubt; inactive = no such curve, though single readings can be large; an effect the other way counts as inactive or inconclusive. Unless noted, % is set by controls: 0 for no effect and ±100 for the full control effect; potency is the fitted concentration of half-maximal effect.

The opening 3 entries, ahead of the listing:
Compound,FEN1 inh,N370S GC mod
COc1cc(C(=O)NC2CCN(CC(=O)NC3CCCCC3C)CC2)cc(OC)c1OC (centres undefined),1%,-19%
CCCc1nnc(SCC(=O)N2CCCC(C)C2)n1CC1CCCO1 (centres undefined),-1%,5%
COc1ccc(C2=[N+](C)CCn3cccc32)c(OC)c1,0%,-6%

The listing, repeating the preview:
Compound,FEN1 inh,N370S GC mod
COc1cc(C(=O)NC2CCN(CC(=O)NC3CCCCC3C)CC2)cc(OC)c1OC (centres undefined),1%,-19%
CCCc1nnc(SCC(=O)N2CCCC(C)C2)n1CC1CCCO1 (centres undefined),-1%,5%
COc1ccc(C2=[N+](C)CCn3cccc32)c(OC)c1,0%,-6%
CC1(C)CC(=O)C2=C(C1)NC(=O)NC2c1ccccc1 (centres undefined),14%,-14%
O=C(COC(=O)c1ccc(Br)cc1)NC1CCCC1,-5%,0%
CCS(=O)(=O)C(=C1Nc2ccccc2N1)S(=O)(=O)CC,-3%,1%
O=c1cc2c(nn1Cc1c(Cl)cccc1Cl)-c1ccccc1CC2,5%,x
O=C(CSc1nnc(Cc2cc(=O)[nH]c(=O)[nH]2)n1-c1ccc(Cl)cc1)NCC1CCCO1 (centres undefined),1%,1%
COc1ccccc1NC(=O)COc1cc(Br)c(CNCCCN2CCOCC2)cc1OC,13%,-11%
O=C(CNC(=O)/C(=C\c1ccccc1)NC(=O)c1ccc(Br)cc1)OCc1ccccc1,11%,11%
COC(=O)C1=C(C)N(c2ccccc2)/C(=C/c2ccco2)C1=O,5%,-10%
Cc1cccc(N/C(N)=N/c2nc(C)cc(=O)[nH]2)c1,-6%,4%

Following part.
Compound,FEN1 inh,N370S GC mod
CC(=C/c1ccccc1)/C=N/NC(=O)c1ccccn1,5%,-16%
Cc1ccc(/C=N/n2c(C)cc(C)c(C#N)c2=O)cc1,29%,3%
COc1ccccc1CNC(=O)c1c2c(nc3ccccc13)C(=O)N(C1CCCCC1)C2,9%,x
CC(=O)N1c2ccc(S(=O)(=O)NCCC(=O)NC3CCCCCC3)cc2CC1C (centres undefined),16%,-1%
O=C(Nc1ccc(C(=O)N2CCN(c3ccccc3)CC2)cc1)C1=CSCCO1,17%,-7%
COc1cccc(/C=C/C(=O)OC(C)C(=O)Nc2c(C)n(C)n(-c3ccccc3)c2=O)c1 (centres undefined),8%,-4%
CC(C)Nc1nc(SCC(N)=O)nc(N2CCOCC2)n1,-16%,2%
C=C1C(=O)O[C@@]23[C@H]1CC[C@@H](C)[C@@H]2CC[C@@]1(C)O[C@@H]31,10%,x
CC(C)(C)OC(=O)NCCCC[C@@H](C(=O)NCCCCCCCCCCC(=O)N1CCN(C(=O)OC(C)(C)C)CC1)n1cc(CCO)nn1,-11%,-11%
CCCCn1c(-c2ccco2)nc2oc3ccccc3c(=O)c2c1=O,-7%,-15%
Cn1c2ccsc2c2ncn(Cc3ccc(F)cc3)c(=O)c21,-3%,x
Cc1ccccc1Cn1cc(/C=N/n2cnnc2)c2ccccc21,-8%,-10%

New compounds follow.
Compound,FEN1 inh,N370S GC mod
Brc1cnc(N2CCCC2)nc1N1CCOCC1,-4%,-7%
Cc1ccc(C)c(S(=O)(=O)c2nnn3c2nc(NCc2cccs2)c2sccc23)c1,-7%,x
CCCN(CCC)C(=O)Cn1c(=O)n(CCCCC(=O)NCc2ccco2)c(=O)c2ccccc21,4%,-16%
O=C(Nc1ccc2nn(-c3ccccc3)nc2c1)c1ccc(Br)o1,-4%,10%
COc1ccc(C(C)=O)cc1CN1C(=O)NC(c2ccccc2)(c2ccccc2)C1=O,5%,-9%
Cc1[nH]nc2c1C1(CCN(Cc3ccccc3)CC1)C(C#N)=C(N)O2,-10%,-5%
CCN(CC)S(=O)(=O)c1ccc(C(=O)Oc2coc(CSc3nc(C)cc(C)n3)cc2=O)cc1,-8%,1%
Cc1ccc(N=Cc2c(O)n(-c3nccs3)c(=O)c3ccccc23)cc1,8%,2%
Cc1c(NC(=O)C(C)N2C(=O)NC3(CCC(C)CC3)C2=O)c(=O)n(-c2ccccc2)n1C (centres undefined),16%,13%
Cc1ccc(OCCCN2C(=O)C(=O)c3cc(C)ccc32)cc1,16%,5%
CCCC(C(=O)NC1CCCC1)N(Cc1ccccc1)C(=O)c1snc(C(N)=O)c1N (centres undefined),-18%,6%
Cc1[nH]c2ccc(C(=O)N3CCN(c4ccccc4Cl)CC3)cc2c1C,-24%,2%

Single entries from the list:
N370S GC mod with O=C(Nc1ccc2nn(-c3ccccc3)nc2c1)c1ccc(Br)o1 stands at 10%
N370S GC mod with CCN(CC)S(=O)(=O)c1ccc(C(=O)Oc2coc(CSc3nc(C)cc(C)n3)cc2=O)cc1 stands at 1%
N370S GC mod with CCCN(CCC)C(=O)Cn1c(=O)n(CCCCC(=O)NCc2ccco2)c(=O)c2ccccc21 stands at -16%
N370S GC mod with CCCC(C(=O)NC1CCCC1)N(Cc1ccccc1)C(=O)c1snc(C(N)=O)c1N (centres undefined) stands at 6%
N370S GC mod with Cc1c(NC(=O)C(C)N2C(=O)NC3(CCC(C)CC3)C2=O)c(=O)n(-c2ccccc2)n1C (centres undefined) stands at 13%

(cont.)
Compound,FEN1 inh,N370S GC mod
COc1cccc(NC(=O)Cn2cc(C(=O)c3ccco3)c3ccccc32)c1,1%,x
Cc1nn(C)cc1/C=N/NC(=S)Nc1ccccc1,3%,3%
O=C1C(=O)N(Cc2cccnc2)C(c2cccc([N+](=O)[O-])c2)/C1=C(\O)c1ccc2c(c1)OCCO2 (centres undefined),-6%,-1%
CC(=O)c1ccc(NCCC(=O)c2ccccc2)cc1,-7%,0%
Cc1c(NC(=O)COC(=O)c2cc(-c3ccc(-c4ccccc4)cc3)nc3ccccc23)c(=O)n(-c2ccccc2)n1C,4%,12%
CC(C)CCNC(=O)C(c1ccncc1)N(CC1CCCO1)C(=O)Cn1nnc(-c2ccc(F)cc2)n1 (centres undefined),1%,-15%
COC(=O)C1=C(C)N(C)C(=O)NC1c1ccc(O)c(Cl)c1 (centres undefined),-1%,2%
COc1ccc(N2CC(C(=O)N(C)CC(=O)Nc3ccc(Cl)c(C(F)(F)F)c3)CC2=O)c(OC)c1 (centres undefined),-15%,-11%
COC(=O)c1ccccc1NC(=O)C1=C(C)C(=O)OC12CCC(C)CC2 (centres undefined),-13%,x
CCOC(=O)Cn1c(CN2CCN(c3cccc(Cl)c3)CC2)nc2c1c(=O)[nH]c(=O)n2C,-2%,-1%
COCCn1c(SCC#N)nnc1-c1ccc2c(c1)OCO2,0%,-3%
COc1ccc(Cl)cc1NC(=O)c1nc2nc(C)cc(C(F)F)n2n1,-4%,-15%

Further entries follow.
Compound,FEN1 inh,N370S GC mod
CC1(C)C(=O)NCCN1C(=O)CCC(=O)O,-5%,-3%
COC(=O)[C@@H]1CC[C@H](C)[C@@H](c2ccc(C)cc2)N1C(=O)c1ccc(/C=N/OCC[C@@H]2C=C[C@H](OC(C)=O)[C@@H](COC(C)=O)O2)cc1,x,5%
COc1ccc(N(CC(=O)Nc2ccc(C)c(C)c2)S(=O)(=O)c2c(C)noc2C)cc1,8%,-9%
COc1ccccc1/C=C1/SC(=O)N(CCC(=O)Nc2ccc(S(=O)(=O)Nc3nccs3)cc2)C1=O,u,-12%
CCOc1ccc(NC(=O)N2CCCC2C(=O)NCc2ccco2)cc1 (centres undefined),7%,-6%
CCOC(=O)CCNCc1ccc(F)cc1,1%,2%
CCn1cc(CNC(=O)/C=C/c2cnn(C)c2)c(C)n1,4%,8%
Cc1cccc(N2Cc3ccccc3C2=NC(=O)c2ccc(Cl)nc2)c1,3%,4%
O=C(c1ccc(-c2cccc(C(F)(F)F)c2)o1)N1CCN(c2ccccc2O)CC1,-1%,-4%
Cc1ccc(S(=O)(=O)CC(=O)Nc2ccc(F)c(F)c2F)cc1,-6%,-3%
O=C(OCC(=O)N1CCCCCC1)c1ccc(F)cc1F,11%,-17%
CCn1c(C(=O)NCc2ccccc2Cl)cc2sc(Cl)cc21,3%,x

Next part.
Compound,FEN1 inh,N370S GC mod
OCCNc1nc2ccccc2[nH]1,0%,1%
Cc1ccc(NC(=O)CCNC(=O)c2ccccc2Cl)nc1,7%,-15%
Cc1ccc(NC(=O)Cc2nc(COC(=O)c3c(F)cccc3Cl)cs2)cc1,-14%,x
CC(C(=O)Nc1ccccc1-c1ccccc1)N1CCN(S(=O)(=O)c2ccccc2)CC1 (centres undefined),-9%,3%
CC(C)N(C(=O)[C@H]1CC(CC(=O)NCc2ccco2)C(=O)N2CCc3c([nH]c4ccccc34)[C@]12C)C(C)C (some centres undefined),-3%,x
CCCCNC1c2ccccc2C(=O)N1Cc1ccccc1 (centres undefined),-17%,2%
CCOc1ccccc1NC(=O)c1cc(S(=O)(=O)N2CCC3(CC2)OCCO3)ccc1F,-8%,4%
COc1ccc(C2C3=C(N=C4SCC(=O)N42)c2ccccc2CC3)cc1 (centres undefined),9%,6%
Cc1ccc(CCN2C(Nc3ccccc3)=NC[C@@H]2C)cc1,15%,-7%
O=c1o[nH]c(-c2ccccc2)c1C1=NCCCCC1,3%,1%[2.35 µM]
COCCN(C(=S)Nc1ccc(OC)cc1)C(C)c1cccs1 (centres undefined),8%,7%
CC(C)(C)C(=O)NCCc1nc2ccccc2n1CCCCOc1ccc(Cl)cc1,2%,x

Next section:
Compound,FEN1 inh,N370S GC mod
COc1cc(NS(=O)(=O)c2ccc(NC(=S)NC(=O)c3ccccc3)cc2)nc(OC)n1,-7%,-1%
Cc1ccc(N/C=C2\C(=O)C3(C)CCC2C3(C)C)cc1C (centres undefined),-1%,-1%
COCCn1c(C(=O)N2CCCC2)cc2c1C[C@H]1CN(C(=O)c3ccccc3)[C@@](Cc3ccc(OC)cc3)(C(=O)OC)[C@@H]21,x,-13%
COc1ccc(CNc2nc3nc(-c4ccccc4)cc(=O)n3[nH]2)cc1OC,-4%,8%
CCCn1c2c(c(O)c(C(=O)Nc3ccccn3)c1=O)CCCC2,x,-6%
Cc1ccc(C)c(N(CC(=O)NCCC2=CCCCC2)S(C)(=O)=O)c1,-2%,-8%
Cc1ccc(NC(=O)CSc2nc(N)c(-c3ccccc3)c(=O)[nH]2)cc1Cl,-6%,2%
CCOC(=O)C1=C(c2ccccc2)NC(SCC(=O)Nc2cccc(C)c2)=C(C#N)C1c1ccco1 (centres undefined),-4%,23%
CCOC(=O)c1cccc(NC(=O)CCNS(=O)(=O)c2ccc3c(c2)CCN3C(=O)CC)c1,7%,u
O=C(Cn1nc(Cc2cccnc2)c2ccccc2c1=O)N1CCN(C(=O)c2ccco2)CC1,24%,-12%
O=C(O)COCC(=O)NCc1nc(-c2ccc(C(F)(F)F)cc2)no1,-1%,24%
CCN(CC)c1ccc(S(=O)(=O)N2CCOCC2)cc1NC(=O)CSc1nnc(N)s1,-1%,4%

Carrying on:
Compound,FEN1 inh,N370S GC mod
COc1ccc(-n2nc(C(=O)Nc3cc(C)ccn3)c3c4ccccc4n(C)c3c2=O)cc1Cl,15%,x
O=C(OCCN1CCN(C2=NS(=O)(=O)c3ccccc32)CC1)c1ccccc1F,-4%,2%
CCC1C(=O)N(c2nc(C)cc(C)n2)N=C1C (centres undefined),11%,-2%
Fc1ccc(-c2nc(-c3cccs3)[nH]c2-c2ccc(F)cc2)cc1,-12%,-3%
COc1ccc(C(=O)Nc2sc(C(=O)N(C)C)c(C)c2C#N)cc1[N+](=O)[O-],-5%,-2%
Cc1ccc(CSc2ncnc3c2cnn3Cc2ccccc2)cc1C,8%,11%
COc1ccc(Cl)cc1NC(=O)NCc1cccnc1,14%,-2%
Cc1cc(C(=O)Nc2ccc(S(=O)(=O)Nc3onc(C)c3C)cc2)cs1,1%,-3%
COc1cccc2cc(C(C)=O)c(=O)oc12,3%,-1%
Cc1cccc(OCC(=O)Nc2ccc(NC(=O)c3ccco3)cc2)c1,0%,-8%
CC(=O)Nc1cccc(/C(C)=N/NC(=O)c2cc(-c3ccncc3)nc3ccccc23)c1,-1%,-20%
CC1=CC2=NC(=O)/C(=C\c3ccc(-c4ccc(Cl)cc4)o3)C(=N)N2O1,x,-2%

Some of these compounds in order of formula weight, high to low.
Compound,FEN1 inh,N370S GC mod
CC(=O)Nc1cccc(/C(C)=N/NC(=O)c2cc(-c3ccncc3)nc3ccccc23)c1,-1%,-20%
Cc1ccc(CSc2ncnc3c2cnn3Cc2ccccc2)cc1C,8%,11%
Cc1cccc(OCC(=O)Nc2ccc(NC(=O)c3ccco3)cc2)c1,0%,-8%

(list continues)
Compound,FEN1 inh,N370S GC mod
Cc1ccnc(NC(=O)c2sc3ccccc3c2Cl)c1,3%,-15%
CC(C)NC(=O)Nc1ccc2c(c1)C(=O)N([C@H](C)CO)C[C@H](C)[C@@H](CN(C)S(C)(=O)=O)O2,2%,x
CC(C)CNC(=O)CCCc1c[nH]c2ccccc12,-4%,-15%[12.8 µM]
O=C1OCc2ccc(NS(=O)(=O)c3ccc(C(F)(F)F)cc3)cc21,-18%,4%
COc1ccccc1NC(=O)Cn1c(=O)n(-c2ccccc2)c(=O)c2oc3ccccc3c21,0%,0%
CCOc1c(Br)cc(/C=N\NC(=O)c2ccccc2)cc1OC,2%,-3%

The list is partial; most or all hits stand in other tables.
